Screening results deposited in PubChem by ICCB-Longwood Screening Facility, Harvard Medical School.
MbtI inh: blocks the Mycobacterium tuberculosis siderophore enzyme MbtI. AID 493033. purified MbtI enzyme, fluorescence intensity read-out. inhibition, %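 (about 17 µg/mL by stock and volumes)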. 0.89% of 100,000 active;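 active means above 50% in both replicates, above 80% if mildly self-fluorescent; inactive means the rest, strongly fluorescent compounds included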;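 further: 0% = mean of negative and 100% = mean of positive controls; one replicate is shown; some compounds called inactive have numbers as strong as hits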
Target sequence (P9WFX0 whole entry, looked up): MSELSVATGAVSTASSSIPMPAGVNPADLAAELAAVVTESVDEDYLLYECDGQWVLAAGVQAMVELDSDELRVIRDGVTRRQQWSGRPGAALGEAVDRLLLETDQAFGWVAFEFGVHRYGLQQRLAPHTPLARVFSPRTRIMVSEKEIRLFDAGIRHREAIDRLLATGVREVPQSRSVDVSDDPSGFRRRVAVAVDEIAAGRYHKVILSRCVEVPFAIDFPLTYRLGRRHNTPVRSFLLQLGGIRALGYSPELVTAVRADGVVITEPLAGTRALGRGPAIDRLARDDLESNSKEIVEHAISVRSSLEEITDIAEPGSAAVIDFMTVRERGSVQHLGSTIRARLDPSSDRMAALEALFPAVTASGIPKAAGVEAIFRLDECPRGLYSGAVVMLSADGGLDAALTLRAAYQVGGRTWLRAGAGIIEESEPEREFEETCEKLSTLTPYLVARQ
Mtb MenB inh: inhibitors of Mycobacterium tuberculosis MenB enzyme; MenB enzyme assay, absorbance read-out; some hits fall short of the stated cut; inhibition, %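 (about 12 µg/mL by stock and volumes)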; 0.43% of 100,000 active; AID 540299;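 active means mean of two replicates above 30%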;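 further: 0% = no compound and 100% = wells with inactive enzyme; the first replicate is given; strong numbers were not always called active; inactives centre near -10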
PV pol inh: poliovirus RNA polymerase inhibition; P03300; poliovirus polymerase elongation, fluorescence polarization; active compounds read low; % elongation, % (compound at 16.7 µg/mL); 0.66% of 150,000 active; AID 588519; in the data active means % elongation below about 90%; further: some results filed as inactive read as strong as hits
Target sequence (P03300 1749-2209 limits assumed): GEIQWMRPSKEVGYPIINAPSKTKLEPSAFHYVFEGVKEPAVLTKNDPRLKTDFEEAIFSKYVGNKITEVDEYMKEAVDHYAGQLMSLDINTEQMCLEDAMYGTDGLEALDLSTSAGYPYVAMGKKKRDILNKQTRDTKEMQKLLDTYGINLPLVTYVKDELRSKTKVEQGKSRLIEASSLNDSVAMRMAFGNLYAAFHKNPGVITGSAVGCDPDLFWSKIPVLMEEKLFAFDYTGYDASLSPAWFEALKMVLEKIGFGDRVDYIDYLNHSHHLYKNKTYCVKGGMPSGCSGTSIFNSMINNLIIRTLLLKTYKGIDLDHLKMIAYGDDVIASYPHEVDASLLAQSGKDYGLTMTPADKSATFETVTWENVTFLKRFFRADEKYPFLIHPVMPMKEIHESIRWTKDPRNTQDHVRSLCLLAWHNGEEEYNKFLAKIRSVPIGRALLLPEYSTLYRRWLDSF
PV pol inh intensity: also measured in PV pol inh; calls as there; % elongation; measured here: total intensity read-out; formula for this scale not given here;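 total fluorescence in place of polarization; lower means less elongation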
An asterisk follows results filed as active; i = inactive; / = not tested or not shown; & = joins results of further samples.

No. | structure | MbtI inh | Mtb MenB inh | PV pol inh | PV pol inh intensity
1 | CCOC(=O)C1CCCN(Cc2cn3c(-c4cccc(Br)c4)nnc3s2)C1 (configuration not stated) | 4 | 3 | 102&99 | 105&102
2 | O=C(Cn1c(=O)oc2ccccc21)Nc1ccccc1Cl | / | 6 | 104 | 105
3 | Cc1ccc(C(=O)Nc2cccc(C(=O)O)c2)cc1 | -5 | -38 | 102 | 102
4 | CC(=O)N1N=C(c2ccncc2)OC1c1cn(-c2ccccc2)nc1-c1cccs1 (configuration not stated) | 1 | 3 | 104 | 105
5 | COc1cc(C(=O)O)cc(OC)c1OCc1cc(C(=O)O)oc1C | -26 | -12 | 100 | 100
6 | CCCCn1c(=O)[nH]c2nc3cc(N=Cc4c(O)n(C)c(=O)n(C)c4=O)ccc3nc2c1=O | 3 | -4 | 96 | 110
7 | O=C(NCCCO)Nc1c[nH]c2ccccc2c1=O | 90 | 14 | 102 | 100
8 | NC(=O)C1CCN(C(=O)CSCc2ccc(Br)cc2)CC1 | -11 | -78 | 100 | 103
9 | NC(=O)c1cc(S(=O)(=O)NC2CCCCCCC2)cs1 | -7 | -8 | 102 | 106
10 | Cc1cc(C)nc(NC(N)=NCc2ccccc2)n1 | -16 | -8 | 102 | 105
11 | Cc1cccn2cc(CNC(=O)CC3CCCCC3)nc12 | 104 | -25 | 100 | 107
12 | O=C(CC1CCCC1)Nc1nc2ccccc2s1 | -5 | -51 | 103 | 106
13 | N#CSCCCOc1ccc(Cl)cc1 | 17 | -26 | 101 | 100
14 | COc1ccc2[nH]cc(C(=O)O)c(=O)c2c1 | -2 | -11 | 105 | 102
15 | Cc1noc(-c2ccccc2OC(=O)c2ccccc2)n1 | -10 | -15 | 104 | 108
16 | Cc1cc(C(=O)COC(=O)c2ccc3c(c2)C(=O)N(CCC(C)C)C3=O)c(C)n1-c1nccs1 | -3 | 4 | 102 | 104
17 | Nc1nonc1C1=NOC(c2nonc2N)=NO1 | 17 | 7 | 103 | 104
18 | COc1ccc(NC(=O)C2(c3ccc(OC)cc3)CCOCC2)cc1 | -1 | 6 | 99 | 100
19 | COC(=O)C1=CN(C2CC2)C=C(C(=O)OC)C1c1cccc(OC)c1 | 56 | 6 | 100 | 102
20 | NC(=O)c1ccccc1NC(=O)CSc1ccc2ccccc2c1 | 0 | / | 102 | 101
21 | O=C(CN1CCN(c2ccccn2)CC1)N(c1ccccc1)c1ccc2ccccc2c1 | 6 | -37 | 103 | 105
22 | O=C(O)C1CC(=O)N(c2cccc3ccccc23)C1 (configuration not stated) | / | -1 | 108 | 111
23 | Cc1ccc(-c2cc(-c3c(C)n[nH]c(=O)c3N)[nH]n2)cc1 | 11 | -4 | 102 | 103
24 | Cc1ccc2oc(=O)c(-c3nc(-c4ccccc4)no3)cc2c1 | 4 | 2 | 102 | 103
25 | CC1=Nc2ccc(Br)cc2C(c2ccccc2)N1CC(=O)NN (configuration not stated) | 9 | -16 | 102 | 99
26 | COC(=O)C1=C(C)OC(=O)C1(NC(=O)C1CCCCC1)C(F)(F)F (configuration not stated) | -7 | -12 | 101 | 102
27 | c1ccc2sc(C3CCCCN3)nc2c1 (configuration not stated) | 6 | -31 | 102 | 113
28 | CCNS(=O)(=O)c1cc(-c2nn(C)c(=O)c3ccccc23)ccc1C | -1 | 4 | 100 | 104
29 | CC(C(=O)NC1CCCC1)n1sc2ccccc2c1=O (configuration not stated) | 1 | -14 | 102 | 103
30 | Cc1cccn2c(=O)c(/C=C(\C#N)C(=O)N3CCCCC3)c(N3CCOCC3)nc12 | 12 | -5 | 100 | 102
31 | CC(C)N(C(=O)CSc1nc2ccccc2n1CC(=O)N1C(C)CCCC1C)C(C)C (configuration not stated) | -6 | -55 | 105 | 99
32 | CCN1C(=O)C2NN=C(C(=O)c3nc(Cl)ccc3Cl)C2C1=O (configuration not stated) | / | -2 | 108 | 115
33 | CN(C(=O)c1ccccc1)c1ccc(OCC(=O)O)cc1 | -1 | / | 102 | 97
34 | O=C(CC1CCCC1)NCc1cn2ccsc2n1 | 3 | 2 | 99 | 103
35 | Cc1ccc(NC(=O)NN2CCOCC2)cc1 | -11 | -2 | 103 | 102
36 | CC(=O)Nc1nonc1NC1=CCCCC1 | / | 0 | 112 | 121
37 | CCc1ccccc1NC(=O)CSc1nncn2c1cc1sccc12 | -6 | -3 | 103 | 104
38 | CCc1ccc(NC(=O)CSc2nc3ccccc3c(=O)n2CCc2ccccc2)cc1 | -9 | -17 | 103 | 102
39 | Cc1ccc(Nc2cc(-n3nc(C)cc3C)nc(-c3ccccc3)n2)cc1 | / | -23 | 110 | 117
40 | COc1ccc(OC)c2c(N3CCOCC3)cc(C(F)(F)F)nc12 | 14 | -32 | 102 | 103
41 | Clc1ccc(Nc2nc3ccccc3s2)cc1 | 5 | / | 101 | 99
42 | O=C(O)C1=NN(c2ccccc2)C(=O)CC1 | 1 | 1 | 100 | 104
43 | O=C(Cn1c2ccc(F)cc2c2nc3n(c(=O)c21)CCS3)N1CCCC1 | 44 | 30* | 103 | 101
44 | Cc1cc2c(=O)n(Cc3ccco3)c(SCC(N)=O)nc2s1 | 5 | -17 | 100 | 103
45 | CCc1nnc(SC(CC)C(=O)N2CCCCCC2)c2cc3sccc3n12 (configuration not stated) | 15 | 14 | 101 | 102
46 | CC(C)(C)C(=O)c1sc2c(c1N)c(=O)[nH]c(=O)n2CC1CCCO1 (configuration not stated) | 13 | -9 | 105 | 109
47 | CCOC(=O)c1cccc(NC(=O)c2c(C)[nH]c(C(=O)OCC)c2CC)c1 | -84 | -6 | 102 | 99
48 | CC(C)CC(=O)NC(=S)Nc1cccc2nsnc12 | -4 | -6 | 100 | 104
49 | OCCCn1c(-c2ccccc2)csc1=Nc1ccccc1 | / | -20 | 103 | 99
50 | CSc1ccc(Cl)c(C(=O)OCC(N)=O)c1 | 6 | / | 101 | 98
51 | CCOC(=O)N1CCC(=NNc2ncc(C(F)(F)F)cc2Cl)CC1 | 24 | 0 | 104 | 105
52 | COc1ccc(OCCOC(=O)c2cccc(C#N)c2)cc1 | -1 | -33 | 106 | 105
53 | O=c1c2ccc(-c3nnc(SCCCOc4ccccc4)o3)cc2nc2n1CCCCC2 | -4 | -2 | 104 | 105
54 | c1ccc(-c2cc3c(NC4CC4)ncnc3s2)cc1 | 103 | 11 | 115 | 127
55 | CCCN1CCC(NC(=S)Nc2ccc3c(c2)OCO3)CC1 | 10 | -17 | 102 | 101
56 | Cn1c(=O)c2c(SCC(=O)NCC3CCCO3)nc(-c3ccccc3)nc2n(C)c1=O (configuration not stated) | -3 | 7 | 101 | 104
57 | Cc1ccc(C(=O)OCC(=O)NC2CCCCC2C)cc1 (configuration not stated) | -11 | -3 | 102 | 113
58 | O=C(CCC(=O)N1CCSc2ccccc21)NCC1CCCO1 (configuration not stated) | -6 | -10 | 100 | 104
59 | CSc1nc(N)c(C#N)c(C(C)C)c1C#N | -55 | -33 | 101 | 105
60 | CCN(CC)S(=O)C12CC3CC(CC(C3)C1)C2 (configuration not stated) | 2 | 3 | 105 | 103

Compound profiles, as listed above. Screens in order: MbtI inh	Mtb MenB inh	PV pol inh	PV pol inh intensity
Profile of `CCCN1CCC(NC(=S)Nc2ccc3c(c2)OCO3)CC1` = 10	-17	102	101
Profile of `CC(C)(C)C(=O)c1sc2c(c1N)c(=O)[nH]c(=O)n2CC1CCCO1` (configuration not stated) = 13	-9	105	109
Profile of `OCCCn1c(-c2ccccc2)csc1=Nc1ccccc1` = /	-20	103	99
Profile of `O=c1c2ccc(-c3nnc(SCCCOc4ccccc4)o3)cc2nc2n1CCCCC2` = -4	-2	104	105

Carrying on:
No. | structure | MbtI inh | Mtb MenB inh | PV pol inh | PV pol inh intensity
61 | CC(=O)Nc1ccc(I)cc1C(=O)O | 34 | 1 | 104 | 95
62 | O=C1OCc2ccc(NC(=O)C3CCCCC3)cc21 | 0 | 14 | 100 | 102
63 | O=C(NC(Cc1ccccc1)C(=O)O)c1ccccc1 (configuration not stated) | -98 | -17 | / | /
64 | CSc1ccccc1C(=O)NCCCN1CCOCC1 | -18 | 0 | 101 | 104
65 | CCOC(=O)c1sc(Sc2ccc(C(F)(F)F)cn2)c2c1CC(C)(C)CC2=O | -4 | -24 | 104 | 94
66 | COCCCNC1CCN(Cc2ccccc2)CC1 | 6 | -32 | 104 | 106
67 | Nc1ccc2nn(-c3ccc(Cl)cc3)nc2c1 | 1 | -13 | 101 | 102
68 | O=C(NC1CCCCNC1=O)c1cccnc1Oc1ccc(Cl)cc1 (configuration not stated) | 2 | 13 | 100 | 105
69 | CN1CCN(c2nc(-c3cc4ccccc4o3)cs2)CC1 | 23 | 3 | 103 | 94
70 | CC(=O)Nc1ccc(S(=O)(=O)NCCC(=O)Nc2ccc3c(c2)OC2(CCCC2)O3)cc1 | 8 | -2 | 103 | 97
71 | O=C(Nc1ccccc1)Nc1nnc(C(F)(F)F)s1 | -10 | -5 | 110 | 113
72 | COc1c2c(nc3ccccc13)OC(C(C)(O)CO)C2 (configuration not stated) | 1 | -20&4 | 107&99 | 108&103
73 | C=CCNC(=O)c1cc2c(=O)n3cccc(C)c3nc2n(CC2CCCO2)c1=N (configuration not stated) | i | -37 | 102 | 101
74 | CC1(C)CC(=O)C=C(NCc2ccc(S(N)(=O)=O)cc2)C1 | 12 | -12 | 99 | 100
75 | Cc1cc(C)n(-c2nc3c(c(C(F)(F)F)n2)CC(C)CC3)n1 (configuration not stated) | 8 | -11 | 99 | 101

Down the list, quoted from above:
MbtI inh, entries 61–67, in order: 34, 0, -98, -18, -4, 6, 1
Mtb MenB inh, entries 61–67, in order: 1, 14, -17, 0, -24, -32, -13
PV pol inh intensity, entries 61–67, in order: 95, 102, /, 104, 94, 106, 102

(listing goes on)
No. | structure | MbtI inh | Mtb MenB inh | PV pol inh | PV pol inh intensity
76 | CCc1c(C(=O)c2ccc(OC)cc2)oc2c(C)c3oc(=O)cc(C)c3cc12 | 3 | -7 | 105 | 107
77 | Cc1n[nH]c(C)c1N=Nc1ccc(Br)cc1 | -3 | -47 | 118 | 123
78 | C=CCSc1nnc2c(n1)OC(c1cc3c(cc1Br)OCO3)N(C(C)=O)c1ccccc1-2 (configuration not stated) | -1 | -13 | 104 | 103
79 | NC(=O)COc1ncnc2ccc(Br)cc12 | 5 | 18 | 98 | 104
80 | O=C(O)CN(CC(=O)O)C(=O)/C=C/c1ccccc1 | 1 | -32 | 99 | 98
81 | CCSc1nnc(NC(=O)c2ccc(C)c(S(=O)(=O)N(CC)CC)c2)s1 | -5 | -26 | / | /
82 | CCc1nc2ccccc2c(C(=O)OCC(N)=O)c1C | -10 | / | 101 | 96
83 | Cc1cc(=O)[nH]c(NNC(=S)Nc2ccc(S(=O)(=O)N3CCOCC3)cc2)n1 | 10 | -18 | 104 | 112
84 | CC(C)(C)C(=O)COC(=O)c1cc(Cl)cc(Cl)c1 | -13 | / | 101 | 105
85 | FC(F)(F)c1cccc(-c2nc3ccccn3n2)c1 | -4 | -6 | 102 | 107
86 | CCCNC(=O)Cc1ncn[nH]1 | / | -7 | 102 | 108
87 | Cc1cc(C)c(C#N)c(N2CCC(C(N)=O)CC2)n1 | 89 | -56 | 100 | 103
88 | CCC(Oc1ccc2c(c1)OCO2)C(=O)O (configuration not stated) | 4 | -7 | 101 | 100
89 | CCCNC(=O)c1ccc(-n2c(=S)[nH]c3ccccc3c2=O)cc1 | -5 | -5 | 103 | 104
90 | Cn1c2ccccc2c2cc(C(=O)N/N=C/c3ccc(-c4ccc(S(N)(=O)=O)cc4)o3)sc21 | -15 | -7 | 115 | 137
91 | CCOC(=O)/C=C1\SCC(=O)N1CCOC(=O)c1cc(Cl)c(N)cc1OC | 15 | -22 | 101 | 101
92 | O=C1c2ccccc2C(=O)C1(CO)c1ccccc1 | 100 | -17 | 97 | 91
93 | CCCC(C)C(=O)Nc1nnc(C(C)C)s1 (configuration not stated) | / | -21 | 91 | 92
94 | CCOc1ccc(CNc2ccc(N3CCOCC3)cc2)cc1OC | -7 | -16 | 105 | 103
95 | CCN(CC)N=Nc1ccc(C(=O)O)cc1 | 20 | -10 | 106 | 102
96 | CCn1c(SCC(=O)Nc2c(Cl)cc(S(N)(=O)=O)cc2Cl)nc2ccccc21 | -17 | -12 | 103 | 105
97 | COc1cc(Cl)c(C)cc1NC(=S)N(Cc1cccnc1)Cc1ccco1 | 12 | -14 | 100 | 103
98 | O=C(Nc1ccccc1OC(F)F)C1(c2ccccc2)CC1 | -9 | -20 | 104 | 107
99 | COC(=O)C1=C(C)NC(=S)NC1c1ccccc1 (configuration not stated) | 13 | -2 | 103 | 102
100 | CN1C(=O)/C(=C/c2c(N(C)C)nc3ccccn3c2=O)SC1=S | -5 | -51 | 123 | 147
101 | COc1ccc(C2N3CCCN2CC3)cc1 (configuration not stated) | 18 | 7 | 101 | 103
102 | COC(=O)C1=C(C)Nc2c(c(=O)n(C)c(=O)n2C)C1c1ccc(C)cc1 (configuration not stated) | -4 | -2 | 103 | 110
103 | CC1CN(C(=O)c2cc(F)c(F)cc2Cl)CC(C)O1 (configuration not stated) | -22 | -5 | 100 | 103
104 | COc1ccc(OCCOc2cccc(N)c2)cc1 | 1 | -99 | 102 | 100
105 | CN(C)CC1CCCCC1OC(=O)c1ccc(Br)o1 (configuration not stated) | -1 | / | 101 | 102
106 | COc1ccc(CC(CN)c2ccccc2)cc1 (configuration not stated) | 1 | 36* | 102 | 101
107 | Cc1cc2c(cn1)C(CCC#N)(CCC#N)c1ccccc1-2 | 17 | -18 | 102 | 100
108 | COc1ccc2cc(Br)ccc2c1CC(=O)N1CCOCC1 | -13 | -24 | 102 | 104
